Screening results (PubChem BioAssay)
Sa ugtP lethal: kills S. aureus RN4220 lacking UgtP | S. aureus RN4220 ugtP deletion, OD600 growth, 16 h; some inactives read as strong as hits | 330,000 compounds, 0.54% hits | AID 1259309 | growth inhibition, % (concentration not given with the values);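 active means z-score under -3 and OD600 up to 0.15 on both plates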;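 further: plate controls were untreated wells for no effect and antibiotic for full effect; wells of about 80 µL received 100 nL stock; the first replicate is given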
PrP UTR inh: inhibition of PrP 5' UTR reporter expression. inhibition, % (no concentration beside the values). 340,000 compounds, 0.35% hits. cell-based PrP 5' UTR mRNA reporter, plate reader;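 active means every replicate at 50% or more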;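 further: 0 = median of the neutral control wells; tested in H4 reporter cells; numbers are from one replicate; inactives centre near -14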
Sa RN4220 lethal: S. aureus RN4220 growth inhibition. AID 1259311. OD600, 16 h. 330,000 compounds, 0.33% hits. inhibition, % (test concentration not listed);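 active means z-score of -3 or lower and OD600 up to 0.18 on both plates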;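 further: plate controls were untreated cells for no effect and reference antibiotic for full effect; stock transfer was 100 nL into about 80 µL; one replicate is shown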
Autofluor counter: flagged as autofluorescent in microsphere protease counterscreen | 360,000 compounds, 3.1% hits | compound autofluorescence counterscreen, microsphere flow cytometry; active compounds read high | AID 624483 | fluorescence intensity (test concentration not listed);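 active means at least 3 SD above the mean of all compounds, about 16000 in these data; inconclusive means too few beads counted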;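 further: 100 nL of 1 mM stock went into each well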
Mtb hypoxia rep: Mtb hypoxia fluorescent reporter inhibition; 300,000 compounds, 0.1% hits; fluorescence inhibition, % (test concentration not listed); M. tuberculosis hypoxia-regulated fluorescent reporter, fluorescence;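 active means 35 to 45% if threefold the growth effect, above 45% if 1.5-fold the growth effect; inactive means the rest, general growth blockers included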;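 further: wells of about 50 µL received 100 nL stock; 0% = vehicle wells and 100% = reference inhibitor wells; whole bacteria with a GFP reporter of the hypoxia response; strong numbers were not always called active; many hits fall short of the cut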
BJeLR lethal: kills HRASV12-expressing BJeLR cells; BJeLR (HRASV12) viability, CellTiter-Glo ATP luminescence, 48 h; reference of the scale not given here; inhibition, % (no concentration beside the values); 300,000 compounds, 0.17% hits; AID 1554;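 active means replicate mean above 50%; inconclusive means above 50% but judged a plate artefact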;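 further: 50 nL library stock added to about 25 µL; numbers are from one replicate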
Mtb hypoxia rep growth: second read-out of Mtb hypoxia rep, no call of its own (marks repeat the call); growth inhibition, %; measured here: M. tuberculosis growth (absorbance);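 0% = vehicle and 100% = reference antibiotic; read after six days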
Numbers without * were called inactive; ? = inconclusive; . = no result given.

SMILES | Sa ugtP lethal | PrP UTR inh | Sa RN4220 lethal | Autofluor counter | Mtb hypoxia rep | Mtb hypoxia rep growth | BJeLR lethal
CC[C@@H]1C=C(C(=O)O)[C@H](c2ccc(Br)cc2)N1S(=O)(=O)c1ccc(C)cc1 | 9 | -32 | 15 | 3451 | -4 | 3 | .
O=c1c(-c2n[nH]c(=S)n2-c2ccccc2)cccn1Cc1cccc(Cl)c1 | 1 | -17 | -0.7 | 4521 | 18 | 8 | -8
COc1cccc(NS(=O)(=O)c2csc(C(N)=O)c2)c1 | -1 | -10 | 2.0 | 4435 | 1 | -6 | 1
C(=N\c1nc2ccccc2n1CCN1CCOCC1)/c1cccs1 | . | -5 | . | 3157 | . | . | -13
COc1ccc(OCCNS(=O)(=O)c2ccc3oc4ccccc4c3c2)cc1 | -1 | -18 | 7.0 | 5126 | 10 | 9 | -10
CC1(C)CC(=O)C2=C(C1)NC(=O)NC2c1ccccc1 (centres undefined) | 2 | -9 | 6.6 | 3369 | 15 | 9 | 5
CCN(CC)c1ccc(C=C2C(=O)OC3(CCCC3)OC2=O)cc1 | 2 | -14 | 5.1 | 3466 | 7 | 6 | 4
CCOC(=O)/C(=C/c1ccco1)NC(=O)c1ccc(Br)o1 | 5 | -15 | 4.0 | 2434 | -4 | -2 | 2
COc1ccc(Cl)cc1NC(=O)c1noc2c1CCCC2 | 4 | -31 | 1.6 | 5699 | 5 | 3 | 2
Cn1c(O)c(/C=N/N2CCOCC2)c(=O)n(C)c1=S | 2 | -10 | 0.1 | 5094 | -8 | -2 | 0
CCCCn1c(N)c(N(CC(C)C)C(=O)CSCc2ccc(Cl)c(Cl)c2)c(=O)[nH]c1=O | 10 | -5 | -1.1 | 4765 | -1 | -10 | -13
CCOC(=O)C1=C(C)NC(=O)NC1c1ccc2c(c1)OCO2 (centres undefined) | -1 | -14 | -0.4 | 2990 | . | . | -1
O=C(COc1ccccc1[N+](=O)[O-])N/N=C/c1ccccn1 | . | -30 | . | 2161 | . | . | -1
CC(Oc1ccc(F)cc1)C(=O)Nc1nc(-c2ccccn2)cs1 (centres undefined) | 0 | 28 | 22 | . | 12 | 16 | 25
COC(=O)C(C=NOCc1ccc([N+](=O)[O-])cc1)NC(=O)c1ccccc1 (centres undefined) | -6 | . | -8.4 | . | 4 | 3 | .
Nn1c(Cc2cccc3ccccc23)nnc1SCc1ccc(Cl)c(Cl)c1 | 8 | -14 | -10 | 2455 | 11 | 8 | -10
Cc1cc(C)cc(NC(=O)C2CC(=O)n3ncnc3N2)c1 (centres undefined) | 6 | -21 | 6.3 | 4348 | -8 | 0 | 0
S=C(Nc1ccc(Oc2ccccc2)cc1)NC1CCCCCC1 | -11 | -6 | 1.6 | 2373 | . | . | 3
CC1CC(OC(=O)C2CCN(S(=O)(=O)c3ccc(F)cc3)CC2)C(=O)O1 (centres undefined) | -5 | -13 | 3.3 | 5955 | 7 | 6 | .
CCCc1[nH]nc2c1C(c1ccc(OC)cc1OC)C(C#N)=C(N)O2 (centres undefined) | 3 | -11 | 3.7 | 3854 | 8 | 7 | -7
CCOc1ccc(OCc2cccc(C(=O)N3CCCCCC3)c2)cc1 | 4 | 20 | 4.4 | 2252 | 12 | 6 | 2
CCOC(=O)C1CCCN(C(=S)NC2CCCCC2)C1 (centres undefined) | 4 | -3 | 1.5 | 5112 | -16 | 1 | 0
CC(=O)c1ccc(N2CCN(C(=O)C(=O)c3cn(CC(=O)N4CCCCCC4)c4ccccc34)CC2)cc1 | -3 | -10 | 5.7 | 7470 | 2 | -16 | 4
Cc1ccc(CNCC(=O)Nc2cccc(S(=O)(=O)NC3=NCCCCC3)c2)cc1 | -1 | -77 | -3.7 | 5670 | -1 | 0 | -2
CCCCN1CCC2C=CCC(C(=O)Nc3ccc(Cl)c(C(F)(F)F)c3)C2C1=O (centres undefined) | 1 | . | -2.8 | . | 13 | 9 | .
O=C(COC(=O)CNC(=O)c1ccccc1)Nc1ccc2c(c1)OCO2 | 1 | -11 | 3.8 | 2545 | -4 | -3 | -2
Cc1ccc(/C=c2/sc3n(c2=O)CCCN=3)o1 | . | -79 | . | 8767 | . | . | 1
O=C(NNC(=O)c1ccc(Cn2cccn2)o1)NC12CC3CC(CC(C3)C1)C2 | 4 | -4 | 3.0 | 6364 | 5 | -4 | 3
CC(C)CC1=NN(C(=O)c2cccnc2)C(O)(C(F)(F)F)C1 (centres undefined) | 3 | -21 | 2.8 | 2132 | -7 | -4 | -20
C[N+]12CCC(CC1)C(C#N)(N1CCOCC1)C2 (centres undefined) | -1 | -1 | 1.2 | 4363 | 2 | 3 | 2
O=S(=O)(c1ccc(S(=O)(=O)n2cnc3ccccc32)cc1)N1CCCCCC1 | -3 | -22 | 0.9 | 9833 | 3 | -3 | -5
Cn1c2c(c(=O)n(C)c1=O)C(NC(=O)C(C)(C)C)(C(F)(F)F)C(=O)N2 (centres undefined) | 1 | -19 | 2.8 | 3832 | . | . | -10
CCC(C)NC(=O)COC(=O)c1cccnc1Nc1ccccc1F (centres undefined) | -8 | -25 | -2.2 | 2590 | -2 | 10 | 1
N#Cc1cccc(NC(=O)Cn2cnc(S(=O)(=O)N3CCCCC3)c2)c1 | 9 | -1 | 5.3 | 4868 | 9 | 1 | 1
CC(=O)c1ccc(S(=O)(=O)NCCC(=O)NC2CCN(Cc3ccccc3)CC2)cc1 | 8 | -7 | 5.2 | 4797 | 8 | 6 | .
Cc1cc(C)nc(Nc2n[nH]c(COc3ccc(Cl)cc3)n2)n1 | -2 | -19 | 7.6 | 9889 | 16 | 8 | 5
CCOC(=O)CN(Cc1sccc1C)C(=O)Nc1cccc(OC)c1 | 3 | -21 | 5.0 | 2129 | 3 | 2 | 4
O=C(CCS(=O)(=O)c1ccccc1)Nc1nc(-c2ccccn2)cs1 | 7 | -9 | 19 | 5917 | -6 | 2 | -16
C(=NOCc1ccccc1)c1ccncc1 | 3 | -38 | 5.4 | 3775 | 16 | 13 | .
CCOc1ccccc1OCCCC(=O)N1CCN(S(=O)(=O)c2ccc(Cl)cc2)CC1 | 2 | 87* | 9.6 | 3695 | 10 | 5 | .
Cc1ccc(OCC(O)CNS(=O)(=O)c2ccccc2C(=O)O)cc1 (centres undefined) | 15 | -15 | 1.1 | 4737 | . | . | -10
Cc1cc(C)n(C(=O)N(c2ccccc2)c2ccccc2)n1 | 0 | -8 | 1.4 | 3746 | 7 | 9 | 5
O=P(c1ccccc1)(c1ccccc1)c1ccc(O)cc1 | -2 | -24 | 5.4 | 4321 | -5 | -4 | 15
COc1ccc(/C=N/NC(=O)c2ccoc2C)cc1OC | . | -50 | . | 2343 | . | . | 13
O=C(COc1ccccc1Cl)NNC(=O)C1CCCO1 (centres undefined) | -4 | -37 | 0.9 | 2288 | . | . | 3
Cc1[nH]c2ccc(C(=O)NCCCN3CCCCCC3)cc2c1C | -7 | -10 | -2.4 | 5318 | -3 | 10 | 7
Cc1c(/C=C/C(=O)c2ccccc2)cnn1C | 6 | -45 | 8.1 | 2212 | 20 | 15 | -5
COc1cccc(/C=C2\N=C(c3c(-c4ccccc4)noc3C)OC2=O)c1 | 12 | -46 | 4.7 | 7959 | 8 | -1 | -12
COc1ccc2[nH]cc(CCn3ccc(=O)c(C)c3C)c2c1 | 4 | -12 | 3.6 | 4404 | -6 | 1 | 4
Cc1ccc(NC(=O)CN(C)c2ccc(S(=O)(=O)N3CCCC3)cn2)cc1 | 2 | -1 | 4.7 | 4294 | 7 | 1 | -3
Cc1cccc(NC(=O)N2CCCCCC2)c1C | 10 | -7 | 5.4 | . | 5 | 1 | 0
CCOC(=O)c1nnn(-c2nonc2N)c1CNc1ccccc1 | -3 | -11 | 1.2 | 5639 | 5 | 4 | -6
Cn1c(=O)c2sccc2n2c(CCCC(=O)N3CCCCC3)nnc12 | 9 | -23 | 6.2 | 6053 | 7 | -5 | -3
O=C(Cc1ccccc1)NCCc1ccc(Cl)cc1Cl | 0 | -10 | 7.3 | 2145 | 6 | 12 | -3
COc1ccc(C(=O)N2C[C@H]3C[C@@H](C2)c2cccc(=O)n2C3)cc1OC | 7 | -6 | 2.4 | 4134 | . | . | -2
Cc1ccc(Cl)cc1NC(=O)C1CC(=O)Nc2ncnn21 (centres undefined) | -6 | -16 | 1.0 | 4086 | 14 | 0 | -4
COc1ccc(OC)c(C(=O)COC(=O)COc2ccccc2)c1 | 5 | -11 | 2.6 | 3420 | 14 | 5 | .
COc1cc(C=NNC(=O)c2ccccc2NS(=O)(=O)c2cccs2)cc(OC)c1O | 5 | -22 | 6.5 | 6205 | -1 | 1 | .
Cc1ccnc(NS(=O)(=O)c2ccc(NC(=O)CCOc3ccccc3)cc2)n1 | 14 | 2 | -0.3 | ? | 1 | 9 | 2
COc1ccc(-c2cc(C(=O)N3CCOCC3)no2)cc1 | 4 | -37 | 4.2 | 6879 | 17 | 3 | 5

Some of the entries so far, as labelled records.
COc1ccc(OCCNS(=O)(=O)c2ccc3oc4ccccc4c3c2)cc1
  Sa ugtP lethal: -1
  PrP UTR inh: -18
  Sa RN4220 lethal: 7.0
  Autofluor counter: 5126
  Mtb hypoxia rep: 10
  Mtb hypoxia rep growth: 9
  BJeLR lethal: -10
CCOC(=O)CN(Cc1sccc1C)C(=O)Nc1cccc(OC)c1
  Sa ugtP lethal: 3
  PrP UTR inh: -21
  Sa RN4220 lethal: 5.0
  Autofluor counter: 2129
  Mtb hypoxia rep: 3
  Mtb hypoxia rep growth: 2
  BJeLR lethal: 4
S=C(Nc1ccc(Oc2ccccc2)cc1)NC1CCCCCC1
  Sa ugtP lethal: -11
  PrP UTR inh: -6
  Sa RN4220 lethal: 1.6
  Autofluor counter: 2373
  Mtb hypoxia rep: .
  Mtb hypoxia rep growth: .
  BJeLR lethal: 3
C(=N\c1nc2ccccc2n1CCN1CCOCC1)/c1cccs1
  Sa ugtP lethal: .
  PrP UTR inh: -5
  Sa RN4220 lethal: .
  Autofluor counter: 3157
  Mtb hypoxia rep: .
  Mtb hypoxia rep growth: .
  BJeLR lethal: -13

New compounds follow.
SMILES | Sa ugtP lethal | PrP UTR inh | Sa RN4220 lethal | Autofluor counter | Mtb hypoxia rep | Mtb hypoxia rep growth | BJeLR lethal
CC1(C)C(C#N)=C(N)OC2=C1C(=O)CCC2 | -3 | 11 | -2.9 | 9356 | -3 | 1 | -2
Cc1nnc2ccc(-c3cccc(NC(=O)c4ccc(Cl)nc4)c3)nn12 | 10 | -18 | 0.7 | 6037 | 0 | -1 | 7
Cc1cc(=O)n2[nH]c(-c3ccc(F)cc3)cc2n1 | -9 | -15 | -2.7 | 2756 | . | . | 0
COCCCn1c(C)nnc1SCC(=O)NNC(=O)COc1ccc(Cl)cc1 | 5 | -15 | 2.4 | 3611 | -10 | -7 | 2
O=C(OCc1cc(Cl)ccc1OC(F)F)c1cncc(Br)c1 | 6 | 11 | 7.5 | 4468 | 13 | 6 | 1
Cc1ccc(NC(=S)N2CCN(c3nccc(C(F)(F)F)n3)CC2)c(C)c1 | 11 | 1 | 4.8 | 4200 | 13 | 7 | -2
Cc1ccc(C(=O)NCC(=O)OCc2csc(-c3ccccc3)n2)cc1 | 7 | -16 | 2.4 | 2523 | -4 | 2 | 8
NC1=NC[C@H](c2ccccc2)N1CCCCC1CCCCC1 | . | -7 | . | 4056 | . | . | 13
CCOC(=O)C(N)CSC1CC(=O)N(c2ccc(C(=O)OC)cc2)C1=O (centres undefined) | 6 | -12 | 15 | 2819 | -6 | -3 | -3
Cn1nccc1C(=O)N1CCN(C23CC4CC(CC(C4)C2)C3)CC1 | 12 | -2 | 3.8 | 5941 | -8 | -8 | -8
CCC(C)NC(=O)NC(=O)N(C1CCCCC1)S(C)(=O)=O (centres undefined) | 3 | -10 | 3.9 | 3220 | 3 | 14 | -1
COc1ccc(OC)c(C=NNC(=O)c2ccccc2NS(=O)(=O)c2cccs2)c1 | 2 | -18 | 5.7 | 4012 | 16 | 8 | .
COc1cc2ccccc2cc1C(=O)N1CCc2ccccc21 | -3 | -22 | -5.4 | 6123 | -1 | 3 | .
CCOc1ccc(NC(=O)c2ccc(CNc3c(N4CCCC4)c(=O)c3=O)cc2)cc1 | -1 | -35 | 4.4 | 4863 | -10 | 17 | 0
O=C(CN(C(=O)C1CSC(=O)C1)c1cccc(F)c1)NC1CCCC1 (centres undefined) | 9 | -33 | 9.1 | 4393 | -2 | -4 | 2
Cc1ccsc1C=NN=C1C(=O)Nc2ccccc21 | -4 | . | 11 | . | 11 | 14 | .
